# VDR inhibitor: Inhibitors of the vitamin D receptor (VDR): qHTS; Vitamin D3 receptor (Homo sapiens), P11473; VDR-SRC2-3 peptide fluorescence polarization, 2 h; Potency, µM, without a hit: max response, negative = inhibition, most hits filed as inhibitors; hit rate 0.93% among 400,000; AID 504847, 2011; active = well fitted inhibition curve with a large enough effect; inconclusive = small, poorly fitted or top-dose-only effect, or another doubt; inactive = no such curve, though single readings can be large or run the other way; note: series mostly up to about 120 µM
# Target sequence (P11473 whole entry, looked up): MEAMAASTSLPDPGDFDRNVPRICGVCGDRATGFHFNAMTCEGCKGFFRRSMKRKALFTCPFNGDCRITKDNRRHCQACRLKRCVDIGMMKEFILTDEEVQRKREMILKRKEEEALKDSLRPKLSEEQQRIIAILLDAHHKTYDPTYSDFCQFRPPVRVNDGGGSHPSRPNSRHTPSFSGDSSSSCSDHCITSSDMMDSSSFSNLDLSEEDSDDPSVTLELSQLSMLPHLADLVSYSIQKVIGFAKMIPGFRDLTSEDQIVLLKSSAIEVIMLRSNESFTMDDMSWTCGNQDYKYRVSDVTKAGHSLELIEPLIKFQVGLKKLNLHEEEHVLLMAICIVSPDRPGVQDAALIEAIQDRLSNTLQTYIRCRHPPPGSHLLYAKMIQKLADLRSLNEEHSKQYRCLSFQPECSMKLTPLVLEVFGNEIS
#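 Fluorescence polarization assay measuring small-molecule disruption of VDR binding to the coregulator peptide SRC2-3. Compounds were pin-transferred (23 nl) into the reagent mix and incubated 2 h at room temperature before reading.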
# * hit, by the source's call; ? = inconclusive; & = joins results of further samples. % is set by controls: 0 for no effect and ±100 for the full control effect; potency is the fitted concentration of half-maximal effect. Some of the compounds tested; rates above refer to the full screens.
nr	Structure	VDR inhibitor
1	CCCc1n(CC(O)COC2CCCCC2)c2ccccc2[n+]1C (configuration not stated)	3.7%
2	COc1ccc(C2NC(=O)c3c(sc4c3CCN(C)C4)N2)cc1O (configuration not stated)	13.7%
3	CC(C)(C)C(=O)N1CCC(O)(CS(=O)(=O)Cc2ccccc2)CC1	-1.1%
4	CCCCSc1nnc(-c2cc3c(C(F)(F)F)nn(C)c3s2)n1C	-7.3%
5	Cc1cccc(C)c1OCC(=O)Nc1ccccc1N1CCCCC1	12.1%
6	CN=C(C)c1c(O)c2ccccc2oc1=O	3.5%
7	CC(C)(C)n1cnc(C(N)=O)c1N	-8.8%
8	CCCCOC(=O)c1ccc(NC(=S)NC(=O)c2c(Cl)cnn2C)cc1	3.2%
9	COc1cccc(N2CCN(C(=O)c3ccc(CSc4nc5ccncc5[nH]4)cc3)CC2)c1	-16.3%
10	COc1cc2oc(=O)ccc2cc1[C@H](O)[C@@H](O)C(C)(C)O	3.5%
11	CCCN(c1ccc(OCC)cc1)S(=O)(=O)c1ccc2c(c1)CCN2C(=O)CCC(=O)O	-0.3%
12	Cc1ccc(CC(=O)Nc2cccc(S(=O)(=O)N3CCOCC3)c2)cc1	-0.6%
13	CCC(=O)c1ccc(OCC(=O)OCC(=O)N(C)CC(=O)Nc2ccc(F)cc2)cc1	-4.7%
14	O=c1c(OC2OC(CO)C(O)C(O)C2OC2OC(CO)C(O)C(O)C2O)c(-c2ccc(O)cc2)oc2cc(O)cc(O)c12 (configuration not stated)	-6.1%
15	CCOC(=O)c1[nH]c2ccccc2c1NC(=O)C1CCCCC1	-0.9%
16	NS(=O)(=O)c1ccc(CNS(=O)(=O)c2cc(C(=O)O)ccc2Cl)cc1	3.8%
17	O=C(NCC1CCCO1)C1CCN(C(=O)c2ccc(Cl)cc2)CC1 (configuration not stated)	-7.1%
18	O=C(NCCc1ccc(Cl)cc1)c1cnccn1	-8.1%
19	CCc1cccc(NC(=O)COC(=O)c2cn(CC)c3nc(C)ccc3c2=O)c1	-1.9%
20	COc1cc(C(=O)N2CCN(c3ncnc4sc(C)c(C)c34)CC2)cc(OC)c1OC	8.2%
21	O=S(=O)(c1ccc(Cl)cc1)N1CCN(c2nc(-c3ccc(Cl)cc3)nc3ccccc23)CC1	-20.0%
22	CCCn1c(O)c(N=NC(=O)CNC(=O)c2ccncc2)c2ccccc21	-11.0%
23	Cc1ccc(CN2CCN(CC(=O)Nc3ccc(C)c(C)c3)S2(=O)=O)cc1	-6.6%
24	COC(=O)c1ccc(NC(=O)C[n+]2ccccc2)cc1	-5.0%
25	Cc1cc(-c2n[nH]c(=S)n2/N=C/c2ccc(C)s2)n[nH]1	-30.4%
26	CC1CCN(C(=O)c2ccc(NC(=O)c3ccccc3)cc2)CC1	-0.8%
27	Nc1nc(CSc2ncn(-c3ccccc3)n2)cs1	-1.5%
28	CC(C)(CNC(=O)c1ccc(Br)o1)N1CCOCC1	-8.5%
29	O=C(CN1CCC(C(=O)c2ccc(F)cc2)CC1)Nc1ccc(F)cc1	-2.7%
30	CCC(C)C(NC(=O)C1CCC(C)CC1)C(=O)NCc1ccccn1 (configuration not stated)	-9.0%
31	Cc1cc(C)c2c(CC(=O)N(CCC#N)Cc3cccnc3)coc2c1	-8.7%
32	O=C(Cc1ccc(N2CCNC2=O)cc1)N1CCCC(Nc2ccc(F)c(F)c2)C1 (configuration not stated)	-17.1%
33	Cc1ccc(NC(=O)c2c(F)cccc2Cl)cc1S(=O)(=O)N1CCOCC1	26.3%
34	Cc1ccc(NC(=O)c2ccc(Cl)c(S(=O)(=O)N3CCCCC3)c2)nc1	-12.9%
35	NC(=O)C1CCN(CC(=O)Nc2ccccc2C(=O)NC2CC2)CC1	4.1%
36	CC(NC(=O)c1ccccc1)C(=O)NC1=NCCS1 (configuration not stated)	-4.9%
37	O=C(OCCNC(=O)c1ccc2ccccc2n1)c1ccc(F)cc1	20.1%
38	CC(=O)Oc1ccc(-c2cccc(C(=O)N(C)c3ccc(O)cc3)c2)cc1	12.0%
39	CCOC(=O)c1oc2ccc(S(=O)(=O)n3nc(-c4ccccc4OC)cc3N)cc2c1C	0.6%
40	Cc1c(Cc2ccccc2)sc(/N=C/c2c(O)ccc3ccccc23)c1C(N)=O	-26.2%
41	CC(=O)c1c(O)cc(O)c(C(C)=O)c1O	10.3%
42	Cc1ccnc(NC(=O)CNC(=O)c2sc3ccccc3c2Cl)c1	-22.9%
43	CCOc1ccc2nc(NCCO)[nH]c2c1	15.2%
44	COCCn1c(=NC(=O)C(C)(C)C)sc2cc([N+](=O)[O-])ccc21	-0.5%
45	CCc1ccc2nc3nc(C)cc(C)c3c(N)c2c1	3.0%
46	N=C1/C(=C\c2ccc(-c3ccc(C(=O)O)cc3)o2)C(=O)N=C2SC=C(c3ccccc3)N12	-7.6%
47	COc1cccc(NC(=O)CCS(=O)(=O)c2ccc3c(c2)oc(=O)n3C)c1	3.4%&9.0%
48	COc1ccc(OC)c(NC(=O)c2ccc3c(Cl)c4c(nc3c2)CCCC4)c1	1.2%
49	CC(C)CCN1NC2(CCC(C)CC2)NC1=S (configuration not stated)	-0.9%
50	O=C(NCCc1ccco1)C(=O)NCC1OCCCN1S(=O)(=O)c1cc(F)ccc1F (configuration not stated)	-13.1%
51	COc1ccc(OC(C)C(=O)N(C)Cc2nc(-c3ccc(OC)cc3)no2)cc1 (configuration not stated)	-21.4%
52	CC(=O)N(CC1CCCO1)c1nnc(-c2ccccn2)s1 (configuration not stated)	-3.1%
53	COc1ccc(NC(=O)Cn2c(=O)n(-c3ccc(OC)c(OC)c3)c(=O)c3ccccc32)cc1	7.6%
54	O=C(Nc1ccccc1C(=O)N1CCCCC1)c1cc(F)c(F)cc1Cl	-14.6%
55	O=C(Nc1ccccc1)C1=C(O)CC(c2ccoc2)CC1=Nc1ccccc1 (configuration not stated)	-11.2%
56	CC1CN(CC(O)COc2ccc(C(C)C)cc2)CC(C)O1 (configuration not stated)	-4.3%
57	Cc1ccc(CNC(=O)c2ccc(CSCc3ccccc3Cl)o2)cc1	-6.7%
58	CCOc1ccc(-c2c[n+](=O)c3c(n2[O-])CCCC3)c(OCC)c1	-6.6%
59	CCCCC12CN3CCN(CC(C3)/C1=N\NC(=O)c1ccccc1N)C2	-2.4%
60	c1ccc2c3n(nc2c1)CCCCO3	-5.1%

# (next part)
nr	Structure	VDR inhibitor
61	COC(=O)/C(=C/c1cccc([N+](=O)[O-])c1)NC(=O)c1ccc(OC)cc1	24.4%
62	Cc1nc(N2CCN(C(c3ccccc3)c3ccccc3)CC2)[nH]c(=O)c1C	11.4%
63	CCOc1ccc(NC(=O)C2CCCN(S(=O)(=O)c3ccc(Br)s3)C2)cc1 (configuration not stated)	-12.5%
64	CC(=O)C1=C(C)N(Cc2ccccc2)C(=O)N[C@@H]1c1cccc(C(F)(F)F)c1	-29.2%
65	OCCNCc1cc(Br)ccc1OCc1ccc(F)cc1	-6.1%
66	CN1CCN(c2ccc(Cl)cc2NC(=O)c2ccc(S(=O)(=O)N(C)C)cc2)CC1	-6.2%
67	COC(=O)c1ccc(-n2nnnc2SCC(=O)N2CCCCC2)cc1	-8.8%
68	CCC(=O)N1CCC2(CC1)Oc1ccc(F)cc1C(=O)C21CC(c2ccc(Cl)cc2)=NO1 (configuration not stated)	7.7%
69	CN(C)C(=O)CCc1ccc2c3c([nH]c2c1)[C@]1(C)[C@@H](C(=O)N2CCCCC2)C[C@H](CC(=O)NCCC2=CCCCC2)C(=O)N1CC3	-0.6%
70	Cc1ccc(C(=O)C(C)Sc2nnc(N)s2)cc1 (configuration not stated)	-6.0%
71	CN(C)CC(C)(C)CNC(=O)C1CCN(CCCc2ccccc2)CC1	18.5%
72	O=[N+]([O-])c1cccc(CN2[C@@H](Cc3ccccc3)COCCS2(=O)=O)c1	11.2%
73	COc1ccc(Cl)cc1C1=CC(=O)C[C@H](c2ccc(F)cc2)C1	-10.1%
74	CCOCc1c(C(=O)OCC(=O)/C(C#N)=C(\C)N)oc2ccccc12	-14.3%
75	O=C(NN1C(=O)c2ccccc2NC1c1ccco1)c1ccc(Br)cc1 (configuration not stated)	-3.9%
76	C#CCN(Cc1ccccc1)S(=O)(=O)C=C	-19.5%
77	CN(C(=O)CSc1nc2ccccc2c(=O)n1C)C1CCS(=O)(=O)C1 (configuration not stated)	5.2%
78	C=CCNC(=O)c1ccccc1NC(=O)COc1ccc(OC)cc1	-14.1%
79	Cc1ccc(N(Cc2ccc(C(=O)NCCSc3ccccn3)cc2)S(C)(=O)=O)cc1C	-4.4%
80	c1ccc(Cn2nnc3c(NCc4ccc5c(c4)OCO5)ncnc32)cc1	-3.9%
81	COc1ccccc1/C=C(/C(=O)OCC(N)=O)c1ccccc1	-14.3%
82	Cc1ccc(-n2cc3c(=O)n(C)c(=O)n(C)c3c2)cc1C	4.4%
83	COc1ccc(CCC(=O)Nc2cnc3ccccc3c2)cc1	7.6%
84	CCC(=O)N1CCc2cc(Br)cc(S(=O)(=O)C3(C(=O)OC)CC3)c21	-14.0%

# Arranged by value in VDR inhibitor (largest number first): some entries from above.
no. | canonical_smiles | VDR inhibitor
82 | Cc1ccc(-n2cc3c(=O)n(C)c(=O)n(C)c3c2)cc1C | 4.4%
46 | N=C1/C(=C\c2ccc(-c3ccc(C(=O)O)cc3)o2)C(=O)N=C2SC=C(c3ccccc3)N12 | -7.6%
9 | COc1cccc(N2CCN(C(=O)c3ccc(CSc4nc5ccncc5[nH]4)cc3)CC2)c1 | -16.3%
64 | CC(=O)C1=C(C)N(Cc2ccccc2)C(=O)N[C@@H]1c1cccc(C(F)(F)F)c1 | -29.2%

# Quoted at random: 2 entries already listed
nr	Structure	VDR inhibitor
82	Cc1ccc(-n2cc3c(=O)n(C)c(=O)n(C)c3c2)cc1C	4.4%
83	COc1ccc(CCC(=O)Nc2cnc3ccccc3c2)cc1	7.6%

# (more compounds)
nr	Structure	VDR inhibitor
85	O=C1c2ccc(-c3ccc(F)cc3OCc3ccccc3)cc2S(=O)(=O)c2cccc(C(=O)N3CCN(c4ncc(Cl)cc4Cl)CC3)c21	-19.1%
86	COc1ccc(NC(=O)C(CCS(C)(=O)=O)N2C(=O)c3ccccc3C2=O)cc1 (configuration not stated)	3.6%
87	CCCNS(=O)(=O)/C=C/c1ccccc1	-8.6%
88	O=C(C1=C[C@H](C2CC2)C[C@H](OCc2ccc(CO)cc2)O1)N1CCN(Cc2ccccc2)CC1	9.9%
89	CCN(CC)C(=O)Cn1c(=O)n(-c2ccc(OC)cc2OC)c(=O)c2c(C)c(C(=O)N(CC)CC)sc21	4.1%
90	CCc1cc(=O)oc2cc(C)cc(OC(C)C(=O)NCCN3CCOCC3)c12 (configuration not stated)	-11.4%
91	O=C(Nc1ccc(Cl)c(C(F)(F)F)c1)C1CCCN(S(=O)(=O)c2cccc3cccnc23)C1 (configuration not stated)	10.2%
92	COc1ccc(/C=N/Nc2ccc(C(F)(F)F)cc2[N+](=O)[O-])cc1	-0.5%
93	N#CC(=Nc1ccccc1)c1ccccc1	-9.6%
94	Fc1ccc(C2CC(c3ccco3)=Nc3ccccc3S2)cc1 (configuration not stated)	-35.0%
95	O=c1[nH]c(=S)[nH]nc1Cc1ccc(Cl)c(Cl)c1	-7.8%
96	Cn1c(=O)c(-c2ccccc2)c(O)c2ccccc21	-1.3%&1.8%
97	O=C1N(C2CCCC2)C[C@@H]2C[C@@H](c3cccn3-c3nccs3)N3CCC[C@@]123	-24.3%
98	Cc1cccc(NS(=O)(=O)c2nnc(NC(=O)c3ccc(Cl)cc3)s2)c1	-4.8%
99	O=S1(=O)CC(O)C(N=Nc2c(O)n(Cc3ccccc3)c3ccccc23)C1 (configuration not stated)	?
100	Fc1ccc(CN(Cc2ccccc2)C(c2cccs2)c2nnnn2C2CCCCC2)cc1 (configuration not stated)	2.8%
101	Cc1cc(Br)ccc1NC(=O)CNC(=O)CSc1n[nH]c(N)n1	7.1%
102	CC(C)CC(=O)N1CCN(Cc2cccc([N+](=O)[O-])c2)CC1	-2.4%
103	CSc1ccc(/C=C/C(=O)NC23CC4CC(CC(C4)C2)C3)cc1	12.2%
104	CC(C)CC(=O)NC(=S)Nc1sc2c(c1C(N)=O)CCC2	-15.3%
105	COc1ccc(NC(=O)N2CCC(NC(=O)c3ccco3)CC2)cc1	?
106	O=C(N/N=C/c1ccc([N+](=O)[O-])cc1)c1cnccn1	-2.1%
107	CC(=O)Nc1ccc(CN2CCN(CC(C)C)C(CCO)C2)cc1 (configuration not stated)	22.2%
108	Cc1ccc(NC(=O)c2c(C)nc3sc(C(=O)Nc4ccc(F)cc4)c(N)c3c2-c2ccc(Cl)cc2)c(C)c1	-3.4%
109	N#C/C(=C/c1ccc(OCc2ccc(C(=O)O)cc2)cc1)C(=O)Nc1ccccc1	?
110	Cn1c(=O)oc2cc(S(=O)(=O)NCCC(=O)NCCc3ccccc3)ccc21	-13.9%
111	Cc1cc(NC(=O)CCC(=O)N(Cc2ccco2)C2(C(=O)NC3CCCCC3)CCCCC2)no1	7.8%
112	Cc1ccc(S(C)(=O)=NS(=O)(=O)c2cccc3nsnc23)cc1 (configuration not stated)	-10.4%
113	COc1ccc(-c2nnc(NC(=O)c3ccco3)s2)cc1	14.7%
114	CNS(=O)(=O)c1cccc(C(=O)OCC(=O)NC2CCCC(C)C2C)c1 (configuration not stated)	-1.8%
115	O=C(CN1C(=O)c2ccccc2S1(=O)=O)Nc1ccc(S(=O)(=O)Nc2ncccn2)cc1	-2.0%
116	O=[N+]([O-])c1ccc(C2CN=C(Nc3ccccc3)S2)cc1 (configuration not stated)	-2.9%
117	O=C1CC(c2ccc(S(=O)(=O)Nc3cc(C(F)(F)F)cc(C(F)(F)F)c3)cc2)CN1 (configuration not stated)	-11.7%
118	CC(C)CCC(CC(C)O)C(=O)NNC(=S)Nc1ccccc1 (configuration not stated)	-7.7%

# Given with values ahead of the structure: two of the compounds above
No.	VDR inhibitor	Structure
112	-10.4%	Cc1ccc(S(C)(=O)=NS(=O)(=O)c2cccc3nsnc23)cc1 (configuration not stated)
113	14.7%	COc1ccc(-c2nnc(NC(=O)c3ccco3)s2)cc1
